AmpC inh no det: blocks E. coli AmpC beta-lactamase in absence of detergent. AID 585. P00811. Potency, µM (doses to about 28.7 µM), for the others: at the highest dose activity change, negative = inhibition. AmpC nitrocefin hydrolysis, absorbance 480 nm, no detergent; potencies from a single point are estimates. hit rate 1.8% among 71,000; active = falling curve, for most hits resting on a single point; inconclusive = weak or doubtful change; inactive = flat or rising curve; note: % of control where 0% means no effect; about half of the hits show no inhibition at the top dose; a quarter of the inactives give rising signals
Target sequence (P00811 whole entry, looked up): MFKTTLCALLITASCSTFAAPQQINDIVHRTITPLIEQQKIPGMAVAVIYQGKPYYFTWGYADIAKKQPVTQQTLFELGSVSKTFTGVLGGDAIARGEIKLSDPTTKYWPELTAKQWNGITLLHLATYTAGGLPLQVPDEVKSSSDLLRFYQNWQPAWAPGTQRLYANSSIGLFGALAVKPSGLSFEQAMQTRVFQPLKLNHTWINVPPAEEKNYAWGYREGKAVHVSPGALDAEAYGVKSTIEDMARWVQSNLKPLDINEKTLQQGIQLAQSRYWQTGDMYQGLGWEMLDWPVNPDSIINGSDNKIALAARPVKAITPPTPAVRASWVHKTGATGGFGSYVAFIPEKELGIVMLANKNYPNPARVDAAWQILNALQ
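AmpC, 20 mM phosphate pH 7.0; 15 min cpd preinc, RT; start with nitrocefin (800 uM stock); A480 kinetic read, 20 s intervals, 4 min. No-enzyme wells = negative control.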
* hit, by the source's call; u = inconclusive; [ ] = remark or other dose. Potency is the fitted concentration of half-maximal effect.

SMILES | AmpC inh no det
Cc1ccc(Cn2c(SCC(C)C)nc3c2c(=O)n(C)c(=O)n3C)cc1 | 66.4%
CN1C(=O)N(C)C(=O)C2(Sc3ccccc3C2=O)C1=O | -8.8%
CC1CCCCC1NC(=O)C1CCN(C(=O)c2sccc2-n2cccc2)CC1 (stereo unspecified) | 55.2%
C=CCn1cnc2scc(-c3ccccc3)c2c1=O | 1.2%
CCOCCCNS(=O)(=O)c1ccc2c(c1)oc(=O)n2CC(=O)OCC | 6.7%
COC(=O)[C@H]1C[C@@H]1[C@H](NC(=O)c1cc(C)nn1C)c1ccccc1 | 42.5%
CCCn1c(SCC(=O)NCCc2ccccc2)nnc1-c1cccnc1 | 24.1%
O=C(Nc1nccs1)c1ccc(Br)o1 | -18.3%
CC1(C)CC(=O)CC(C)(C)N1OC(=O)c1ccccn1 | 9.2%
NC(=O)c1oc2ccccc2c1NC(=O)c1ccco1 | 5.5%
CN(C)c1ncc2nc(-c3ccc(Cl)cc3)c(=O)n(Cc3ccc(F)cc3)c2n1 | -2.1%
CC1CCC/C(=C\Nc2ccc(O)cc2)C1=O (stereo unspecified) | -8.9%
COc1cccc(-c2nc(CS(=O)(=O)CC(=O)NCCC(C)C)c(C)o2)c1 | 74.3%
Cc1ccc(S(=O)(=O)N2CCN(C(=O)CC3CCCC3)CC2)cc1 | 46.2%
COCCNC(=O)C(c1ccccc1)N(CCOC)C(=O)Cn1nnc2ccccc21 (stereo unspecified) | 0.3%
COC(=O)c1cc(CSc2nc3ccc(C)cc3[nH]2)oc1C | -18.1%
CC(=O)N1C(=O)c2cccc3cccc(c23)C(=O)N1C(C)=O | 15.0%
O=C(Nc1ccccc1)N1CC=C(c2ccccc2)CC1 | -11.9%
COc1ccc(OC(C)C(=O)N2CCN(c3ccccn3)CC2)cc1 (stereo unspecified) | 40.7%
O=C(Nc1cccc(F)c1)N1CCCC2(CCN(C(=O)c3ccco3)CC2)C1 | 27.7%
Cc1cccc(Cn2c(=O)n(Cc3ccco3)c(=O)c3ccccc32)c1 | -4.2%
c1ccc(-c2cn3cccnc3n2)cc1 | -2.6%
O=C(CSc1nc2ccccc2c(=O)n1Cc1ccco1)c1ccc(F)cc1 | u
Cc1nc2ccc(Nc3nc4cc(S(=O)(=O)N5CCOCC5)ccc4o3)cc2s1 | 116.0%
O=C(Nc1ccccc1C(F)(F)F)C1CC(=O)N(c2ccccc2F)C1 (stereo unspecified) | 10.6%
Cc1cc(Cl)ccc1OC(C)C(=O)O (stereo unspecified) | -12.4%
CCCCS(=O)(=O)NC1=NCN(Cc2ccco2)CN1 | 2.2%
CCN(CC)CCOC(=O)c1ccc(NC(=O)CCNC(=O)Cn2ccc3ccccc3c2=O)cc1 | 7.8%
Cc1[nH]nc2c1C(=O)CC(C)(C)C2 | -2.6%
CCOC(=O)c1c(C)c(C(=O)NCCN2CCOCC2)c(C)n1C | -10.1%
COC(=O)c1ccc(COc2ncnc3c(Cl)cc(Cl)cc23)o1 | 59.9%
Cc1cc(C)n(C(CC(=O)N2CCc3ccccc3C2)C(=O)O)n1 (stereo unspecified) | -3.0%
Cc1ccc(S(=O)(=O)Nc2ccc3c(c2)nc2n3CCN(Cc3ccccc3)C2)cc1 | -2.9%
CNC(=O)C1(C)C=CCN1C(=O)OC (stereo unspecified) | 1.4%
Cc1cccc(NC(=O)CSc2nnc(-c3ccco3)o2)c1C | -0.6%
O=C(c1ccco1)N1CCN(C(c2ccc(F)cc2)c2nnnn2Cc2cccs2)CC1 (stereo unspecified) | 68.5%
COCCn1c(=O)c(-c2ccc(Cl)cc2)nc2cnc(N(C)C)nc21 | 12.2%
COc1ccccc1NC(=O)c1ccc(S(=O)(=O)N(C)C)cc1 | 6.1%
CCCn1c2c(c(O)c(C(=O)Nc3nccs3)c1=O)CCCC2 | 96.4%
O=C(c1ccccc1)c1ccc(OC(=O)N2CCOCC2)cc1 | 35.5%
Cn1c(=O)c(-c2cccs2)nc2cncnc21 | 6.2%
Cn1ccnc1SCC(=O)NC1CCCCC1 | -14.8%
O=C(NCCCn1ccnc1)c1cnn2c1NC(c1ccccc1)CC2C(F)(F)F (stereo unspecified) | 54.4%
CC(Cc1ccccc1)[n+]1cc(/N=C(\[O-])N(C)C)on1 (stereo unspecified) | 0.1%
CCn1c(=O)cc(OCC(=O)N2CCC3(CC2)OCCO3)c2ccccc21 | 18.9%
COc1ccc2c(c1OC)C(=O)OC2C1c2c(cc3c(c2OC)OCO3)CCN1C (stereo unspecified) | 59.3%
CCC(Oc1ccccc1)C(=O)Nc1ccccn1 (stereo unspecified) | -6.2%
COc1ccc(NC(=O)NCCCN2CCc3ccccc3C2)cc1 | 3.98µM*[single pt active]
CC(=O)Cn1c(N2CCC(Cc3ccccc3)CC2)nc2c1c(=O)[nH]c(=O)n2C | 80.6%
CCn1c(Cc2ccccc2)nnc1SCc1nc2ccccc2c(=O)[nH]1 | 14.9%
O=C(c1csnn1)N1CCC2(CCCN(C(c3ccccc3)c3ccccc3)C2)CC1 | 42.2%
CCOC(=O)c1c(C)c(C(=O)Nc2ccc3c(c2)OCCO3)c(C)n1C | 26.9%
O=c1c(-c2ccccc2)n[nH]c2ccccc12 | -12.6%
COc1ccccc1C1SCCN1S(C)(=O)=O (stereo unspecified) | 3.8%
Clc1ccc2c(N3CCNCC3)ccnc2c1 | -11.2%
COc1cc(C)nc(NC(=O)COc2ccc(Cl)cc2C)n1 | -12.5%
Nc1nc(-c2ccccc2)cc(-c2ccccc2O)n1 | 6.1%
CC(C)=CC(=O)OCC(=O)NC(=O)NC(C)(C)C | -2.0%
COc1cc(CC(=O)N2CCc3ccccc32)cc(OC)c1OC | 21.3%
Cc1cccc(-n2cnc3c(c2=O)c2nc4ccccc4nc2n3Cc2ccco2)c1 | 56.0%

Given with each value named: part of the list above.
O=C(c1ccco1)N1CCN(C(c2ccc(F)cc2)c2nnnn2Cc2cccs2)CC1 (stereo unspecified)
  AmpC inh no det: 68.5%
Cn1c(=O)c(-c2cccs2)nc2cncnc21
  AmpC inh no det: 6.2%

More results:
SMILES | AmpC inh no det
CCCCNc1cc(C)nc(NCc2ccccc2)n1 | -2.9%
CCOc1ccc2ccccc2c1C(=O)N1CCOCC1 | -0.2%
COc1ccc(S(=O)(=O)Nc2ccccc2C(F)(F)F)cc1 | -10.7%
Cc1sc2ncnc(SC(C)C#N)c2c1C (stereo unspecified) | -0.5%
N#CCCN(C(=O)Nc1ccc(Cl)cc1)c1ccccc1 | 7.2%
COc1ccc(NC(=O)c2cc3n(n2)C(C(F)(F)F)CC(c2ccco2)N3)cc1 (stereo unspecified) | 14.8%
Cc1ccc2c(c1)C(N1CCN(C)CC1)=Nc1cccnc1N2 | 14.8%
CCOC(=O)C1CCN(c2c(NCCCN3CCN(Cc4ccccc4)CC3)c(=O)c2=O)CC1 | 18.8%
CC1=Nn2c(nnc2-c2n[nH]c3c2CCC3)SC1 | -2.7%
NS(=O)(=O)c1cc2c(cc1C(F)(F)F)NCNS2(=O)=O | 3.6%[12.8 µM]
CCCOc1ccc(C(=O)Nc2cc(-c3nn4c(C)nnc4s3)ccc2C)cc1 | 20.5%
NNCc1cccc(O)c1 | -15.9%
CCc1nnc(NC(=O)c2ccc(N3C(=O)CCC3=O)cc2)s1 | 6.2%
COc1ccc(NC(=O)c2cccnc2N2CCCCC2)cc1 | 19.8%
COc1ccccc1C(=O)Nc1cccc(NC(C)=O)c1 | 15.0%
O=C(OCc1nc2ccccc2s1)c1cccs1 | -1.6%
CN1CCN(c2ncc3nc(-c4ccc(F)cc4)c(=O)n(C4CC4)c3n2)CC1 | 63.1%
CCOC(=O)N1CCN(S(=O)(=O)c2ccc3c(c2)OCC(=O)N3)CC1 | 17.1%
CCN1C=C(C(=O)OC)C(c2cccc(C)c2)C(C(=O)OC)=C1 | 28.9%
NC1=NC(c2cccc(O)c2)n2c(nc3ccccc32)N1 (stereo unspecified) | -20.4%

Random excerpt: 3 entries already listed.
SMILES | AmpC inh no det
O=C(Nc1ccccc1C(F)(F)F)C1CC(=O)N(c2ccccc2F)C1 (stereo unspecified) | 10.6%
CCc1nnc(NC(=O)c2ccc(N3C(=O)CCC3=O)cc2)s1 | 6.2%
O=c1c(-c2ccccc2)n[nH]c2ccccc12 | -12.6%

The main list resumes with the two entries that preceded the break.
SMILES | AmpC inh no det
CCN1C=C(C(=O)OC)C(c2cccc(C)c2)C(C(=O)OC)=C1 | 28.9%
NC1=NC(c2cccc(O)c2)n2c(nc3ccccc32)N1 (stereo unspecified) | -20.4%
O=C(Cc1ccc(F)cc1)OCC(=O)c1cc2ccccc2o1 | -6.0%
CCOc1ccc(N(CC(=O)NC(C)(C)C)C(=O)c2ccco2)cc1 | 13.2%
CC(C(=O)Nc1ccc(N2CCOCC2)cc1)N1C(=O)c2ccccc2C1=O (stereo unspecified) | 9.8%
Cc1cc(NC(=O)CN2CCN(c3ccccc3F)CC2)nc2c1c(=O)oc1ccccc12 | -12.2%
CN1CCN(c2oc(COc3ccc(-c4ccccc4)cc3)nc2C#N)CC1 | 141.9%
N=C1C=CC=C2C1=NC1(CCCCC1)N2O | -5.9%
O=C(NCCc1ccc(Cl)cc1)C1CCCN(S(=O)(=O)c2cnc[nH]2)C1 (stereo unspecified) | 9.4%
CCCCn1cnc2cc(NCc3cccc(OC)c3O)ccc21 | 32.1%
CCn1c(=O)cc(OCC(=O)N(C)c2ccccc2F)c2ccccc21 | 100.3%
Cc1ccc2c(c1)c1ncnc(N3CCc4ccccc4C3)c1n2C | 31.1%
COC(=O)c1ccc(Cc2ccc(C(=O)OC)o2)o1 | -5.9%
CC1=Nn2c(nc(-c3ccccc3)c2-c2ccccc2)N(CC(N)=O)C(=O)C1 | 64.7%
C[C@H]1CCCC2(CC[N+](C)(CCC[N+](C)(C)C)CC2)C1 (stereo partly specified) | 8.9%[5.75 µM]
CCCCCCn1c(=O)c(C(=O)Nc2c(C)n(C)n(-c3ccccc3)c2=O)c(O)c2ccccc21 | 37.4%
O=C(Nc1cccc(C(F)(F)F)c1)C1CCN(S(=O)(=O)c2cnc[nH]2)CC1 | 8.3%
c1nnc2c3c4c(sc3ncn12)CCC4 | 10.2%
O=C1OCCC1Sc1nnc(-c2ccccc2)o1 (stereo unspecified) | 13.8%
Cc1ccc(NC(=O)CCN2CCN(C/C=C/c3ccccc3)CC2)cc1C | 126.6%
c1cncc(C(c2nnnn2C2CCCC2)N2CCCC2)c1 (stereo unspecified) | 4.8%
COc1ccc(C2C(C(=O)c3sc(C)nc3C)=C(O)C(=O)N2CCCn2ccnc2)cc1 (stereo unspecified) | -4.9%
COc1cc(C(=O)NCc2ccc(OCCN(C)C)cc2)cc(OC)c1OC | 1.7%[12.8 µM]
CCOC(=O)Cn1c(=O)c2c(nc(Br)n2CC(=O)OCC)n(C)c1=O | 16.1%
CCOc1ccc(C2CC(c3ccc(CC)cc3)n3nc(N)nc3N2)cc1 (stereo unspecified) | 64.9%
C[C@@H](C(=O)NCc1ccc(C(F)(F)F)nc1)[C@H]1C[C@]1(C)[C@H](NC(=O)OCc1ccccc1)c1ccccc1 | 95.6%
C[C@]12CC[C@@H]3[C@H](CCC4=CC(=O)CC[C@]43C)[C@]1(O)CC[C@@]2(O)C(=O)CO | -2.7%[5.75 µM]
Cc1ccc(Nc2nnc(SCC(=O)NCc3ccco3)s2)cc1 | -4.3%
Cc1cc(C(=O)O)ccc1[N+](=O)[O-] | -6.0%
CCOc1ccc(NC(=O)CN(C)S(=O)(=O)c2cccs2)cc1 | -18.6%
CC(=O)NCc1nc2ccccc2n1Cc1ccccc1C | 54.6%
CCOC(=O)N1CCOCCOCCN(C(=O)OCC)CCOCC1 | 7.9%
CCCN(Cc1cc2cc(C)ccc2[nH]c1=O)C(=O)c1cccc(OC)c1 | 41.6%
Cc1sc2nc(SCC(=O)N(CCO)CCO)n(C3CCCCC3)c(=O)c2c1C | 13.4%
CCNc1nc(NCC)nc(Oc2ccc(OCC)nn2)n1 | 5.4%
CCCCCn1c(CCNC(=O)c2cccs2)nc2ccccc21 | 17.6%
COCCSc1ccccc1C(=O)Nc1nccs1 | -15.6%
CCOC(=O)C(NC(C)=O)(Nc1ccc(S(=O)(=O)Nc2onc(C)c2C)cc1)C(F)(F)F (stereo unspecified) | -6.7%
COc1ccc(-c2noc(CN(C(=O)C(C)(C)C)C(C)C)n2)cc1 | 67.8%
CC(C)[C@H](NC(=O)CCn1nnc2ccccc2c1=O)C(=O)O | -12.2%
COCC(C)n1c(C)cc(C(=O)COC(=O)c2oc3ccccc3c2C)c1C (stereo unspecified) | 47.1%
COc1ccc(C)cc1NC(=O)NC1CCN(Cc2ccccc2)CC1 | 27.3%

Continued, overlapping the part above by 3 compounds.
SMILES | AmpC inh no det
CC(C)[C@H](NC(=O)CCn1nnc2ccccc2c1=O)C(=O)O | -12.2%
COCC(C)n1c(C)cc(C(=O)COC(=O)c2oc3ccccc3c2C)c1C (stereo unspecified) | 47.1%
COc1ccc(C)cc1NC(=O)NC1CCN(Cc2ccccc2)CC1 | 27.3%
Cc1ccsc1C1C=C(c2cccc(Br)c2)Nc2ncnn21 (stereo unspecified) | -13.3%
Cc1cc(C)c(C#N)c(Oc2ccc(O)cc2)n1 | -2.9%
CC1=CC(C)(C)N(C(=O)CSc2nnc(-c3ccccc3)o2)c2ccc(C)cc21 | 14.4%
COc1cc(NC(=O)c2c(-c3ccccc3Cl)noc2C)c2ncccc2c1 | 2.2%
O=C(CNS(=O)(=O)c1ccc(Br)s1)NCc1ccc2c(c1)OCO2 | -10.7%
Cc1oc(-c2cc(Cl)ccc2Cl)cc1-c1nn2c(C)nnc2s1 | 21.1%
COc1cc(NC(=O)Cc2ccccc2OC)cc(OC)c1 | -13.0%
Cc1nn(C)c(C)c1S(=O)(=O)N1CCC(C(=O)Nc2ccc3c(c2)OCCO3)CC1 | 20.6%
COc1ccc2[nH]c(=O)c(CN(CCN3CCCC3)C(=O)Nc3ccccc3Cl)cc2c1 | 33.8%

A portion of the library; the hit share may differ from the screen's.
